Six1-Eya2 blk – Six1/Eya2 interaction inhibition | Q15475+O00167 | activity change, % (no concentration beside the values) | actives 0.56% (n = 360,000) | AID 651725 | AlphaScreen GST-Six1/His-Eya2 binding, biochemical; active compounds read low; control for the full effect not named in the record; in the data active = activity change below about -65%; inconclusive = about -30% to -65%; inactive = above about -30%; note: % is set by controls: 0 for no effect and ±100 for the full control effect
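AlphaScreen with GST-Six1 and His-Eya2 (5X mix: 250 nM and 500 nM), glutathione donor and nickel acceptor beads; buffer 50 mM Tris pH 8.0, 300 mM NaCl, 1 mM TCEP; 1 h at 37 C in the dark.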
gsp ag – gsp mutant agonism | AID 624287 | Potency, µM (titrated, usually from 76.9 µM), without a hit: at the top dose activation (cAMP increase), hits mostly activators | gsp mutant cells, cAMP HTRF, 30 min; control for the full effect not named in the record | actives 0.13% (n = 340,000); active = well fitted activation curve with a large enough effect; inconclusive = small, poorly fitted or top-dose-only effect, or another doubt; inactive = no such curve, though single readings can be large or run the other way; cell line not stated here;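 note: phosphodiesterase inhibitor Ro 20-1724 added with compounds to block cAMP breakdown; potency is the fitted concentration of half-maximal effect; nearly all actives have a fitted effect of over 60% in size; about a fifth of the inactives were tested at one dose only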
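Cells stably selected in G418 were plated at 2000/well, grown 16-24 hr, then given compounds in DMSO with the PDE inhibitor […] (300 uM solution added) for 30 min at 37C; cAMP was read by HTRF.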
D2 ag – agonists of human D2 dopamine receptor (beta-arrestin) | P14416 | DiscoveRx PathHunter D2 beta-arrestin, luminescence, 90 min; 100% = 57 uM dopamine signal | activation, % (concentration not given with the values) | actives 0.084% (n = 360,000) | AID 624465; in the data active = activation above about 40%; inconclusive = about 15% to 40%; inactive = below about 15%; note: compound concentration not given in the record; the text of the record calls up to 30% inactive
Target sequence (P14416 whole entry, looked up): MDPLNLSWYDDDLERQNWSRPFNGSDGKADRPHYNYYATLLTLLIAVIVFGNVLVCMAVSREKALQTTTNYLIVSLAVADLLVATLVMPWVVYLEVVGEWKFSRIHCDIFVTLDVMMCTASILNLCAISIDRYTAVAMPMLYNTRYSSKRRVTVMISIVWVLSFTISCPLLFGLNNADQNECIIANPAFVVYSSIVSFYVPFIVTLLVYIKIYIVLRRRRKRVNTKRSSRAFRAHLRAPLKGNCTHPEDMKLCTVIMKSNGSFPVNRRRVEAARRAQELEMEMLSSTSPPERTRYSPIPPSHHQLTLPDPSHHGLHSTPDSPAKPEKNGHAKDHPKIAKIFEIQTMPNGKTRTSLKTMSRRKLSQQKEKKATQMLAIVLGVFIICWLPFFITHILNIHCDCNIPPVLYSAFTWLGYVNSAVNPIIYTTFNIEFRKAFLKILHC
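DiscoveRx PathHunter D2 beta-arrestin cells (2,100/well) attached overnight, then compound-stimulated 90 min at 37 C in HBSS/10 mM HEPES/0.1% Tween-20 buffer; beta-galactosidase complementation read by luminescence after 1 h at ambient temperature. Dopamine 57 uM final (EC100) as control.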
CtBP-E1A inh – blocks the CtBP interaction with E1A | activity change, % (no concentration beside the values) | AlphaScreen GST-E1A/His-CtBP binding, 1536-well; active compounds read low; control for the full effect not named in the record | actives 0.49% (n = 340,000); in the data active means activity change below about -65%; inconclusive means about -30% to -65%; inactive means above about -30%; note: % is set by controls: 0 for no effect and ±100 for the full control effect
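In 5 uL wells, 23 nL compound meets equimolar GST-E1A and His-CtBP (5X stock 125 nM each) for 2 h, 37 °C. Beads (5X, 50 ug/mL) then 1 h, 37 °C, dark.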
D2 PAM – human D2 receptor positive allosteric modulation; P14416; DiscoveRx D2 beta-arrestin cells, luminescence, 90 min; 100% = 57 uM dopamine signal; potentiation, % (test concentration not listed); actives 0.23% (n = 360,000); AID 624464; active = potentiation of 50% or more; inconclusive = 30% to 50%; inactive = 30% or less;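 note: compound concentration not given in the record; tested on top of an EC20 dose of dopamine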
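D2 cells co-treated with compound plus 50 nM dopamine (EC20) for 90 min at 37 deg C to detect potentiation. Beta-arrestin recruitment was read as enzyme-fragment luminescence after 1 h at ambient temperature. Full response was set by 57 uM dopamine.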
gsp antagonist – gsp mutant antagonism; Potency, µM (highest dose often 76.9 µM), inactives show at the top dose activity change, negative = inhibition, most hits filed as inhibitors; gsp-mutant cells, cAMP HTRF, 30 min; control for the full effect not named in the record; AID 624288; actives 0.4% (n = 340,000); active = falling curve of any shape with a large fitted effect; inconclusive = falling curve, mostly with a smaller effect; inactive = flat or rising curve; cell line not stated here;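 note: intracellular cAMP measured with PDE inhibitor Ro 20-1724 present during compound exposure; potency is the fitted concentration of half-maximal effect; % is set by controls: 0 for no effect and ±100 for the full control effect; nearly all actives have a fitted effect of over 65% in size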
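G418-selected cells were plated in DMEM/10% FBS for 16-24 h at 37C, then treated with compounds plus the PDE inhibitor […] (300 uM solution added) for 30 min at 37C. Intracellular cAMP was measured by HTRF after 30 min lysis at room temperature.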
Numbers without * were called inactive; u = inconclusive; x = no result given; [ ] = dose if it differs, or a comment.

SMILES	Six1-Eya2 blk	gsp ag	D2 ag	CtBP-E1A inh	D2 PAM	gsp antagonist
Cc1cc(=O)[nH]c(SCC(=O)N2CCCc3ccccc32)n1	-0.3	7.6%	2.0	-1.4	-4.8	2.1%
CC(NCC(=O)Nc1ccccc1C(=O)NC1CC1)c1cccs1 (stereo not drawn)	-2.2	u	0.1	3.5	-4.7	3.9%
c1ccc(N2CCN(c3nc4cc5c(cc4s3)OCO5)CC2)cc1	-2.0	-63.4%[inhibitor]	1.9	-0.7	3.3	24.6%
O=C(NC1(C(=O)NC2CCCCC2)CCCCC1)c1ccccn1	-4.9	7.4%	-4.5	-21.2	-0.2	4.6%
C=CCNC(=S)N1CCN(C2CCCCC2)CC1	2.1	-16.1%	2.3	8.0	-4.5	9.2%
Cc1cc(C)c(OCCOCCN(C)C)c(Br)c1	5.0	u	-0.4	0.9	-29.8	10.9%
CCC/C(O)=C1\C(=O)CC(c2ccccc2)CC1=NC (stereo not drawn)	5.3	27.3%	-2.3	1.8	-4.9	-29.9%
COc1cccc(/C=N/Nc2nc(C)cc(=O)[nH]2)c1OC	-9.3	-0.3%[15.4 µM]	1.7	-19.8	-20.7	-3.5%
C/C(=N\NC(=O)COc1ccccc1[N+](=O)[O-])c1cccc(NC(=O)c2ccncc2)c1	u	3.2%[15.4 µM]	-3.5	-22.4	-15.1	14.9%
COCCNC(=O)C[C@H]1C[C@H]2c3cc(NS(=O)(=O)c4ccc(F)cc4)ccc3O[C@H]2[C@H](CO)O1	-1.7	-1.8%	-5.9	4.5	9.9	x
Cc1ccc2cc(S(=O)(=O)NCCCN3CCOCC3)ccc2c1	-0.6	22.6%[15.4 µM]	1.9	3.6	-10.2	0.0%
CCCn1nnnc1SCC(=O)Nc1cccc(NC(=O)c2ccco2)c1	-1.0	-1.9%	-2.4	-2.0	-10.8	-8.5%
CC(CNC(=O)CN1C(=O)COc2ccc(S(=O)(=O)N3CCCCC3)cc21)c1ccccc1 (stereo not drawn)	8.3	u	-1.4	-8.3	-18.4	-8.0%
CSc1ccc(S(=O)(=O)N(CC(=O)NCc2ccccn2)c2ccc(C)cc2)cc1	-15.3	17.4%[15.4 µM]	-0.6	-1.9	1.2	-5.7%
Cc1onc(-c2ccccc2)c1C(=O)OCc1nnc(-c2ccc([N+](=O)[O-])cc2)o1	-26.7	18.2%	5.8	-21.0	23.4	u
Cc1ccsc1C(=O)OCC(=O)Nc1c(C)n(C)n(-c2ccccc2)c1=O	5.6	11.7%	0.9	1.7	-15.2	13.2%
COC(=O)c1c(-c2ccccc2)csc1NC(=O)c1ccco1	6.4	-19.1%	1.2	2.6	-14.6	2.3%
Cc1ccccc1OCCn1c(=O)oc2ccccc21	2.7	22.2%	-4.2	15.6	-8.2	4.3%
CCCN(CCC)C(=O)CCS(=O)(=O)c1cccc2nsnc12	4.3	-28.9%	-2.0	-1.1	-1.9	-8.3%
CN1CCN(c2ncc(CN3C(=O)c4ccccc4C3=O)s2)CC1	-9.9	u	-2.1	-0.8	-8.8	14.2%
S=C1NCN(C2CCCCC2)CN1Cc1ccccc1	-4.2	13.2%[15.4 µM]	-3.4	-14.6	-0.6	-9.4%
COc1ccc(C)cc1NC(=O)C1CCCN1S(=O)(=O)c1ccccc1F (stereo not drawn)	-2.5	-1.4%	-2.3	x	-2.6	-4.1%
COc1ccc(-c2nc(CS(=O)CC(=O)N3CCN(C)CC3)c(C)o2)cc1OC (stereo not drawn)	2.9	-90.9%[inhibitor]	-2.9	6.8	-1.8	0.5%
Cc1ccc(-n2c(=O)cc(N3CCN(C(=O)c4ccco4)CC3)[nH]c2=O)cc1	0.8	-34.4%[inhibitor]	-1.8	-1.2	-4.5	3.7%
Cc1[nH]c(=O)nc2c1CCC2	3.3	-59.4%[inhibitor]	-1.7	x	-5.7	5.8%
CCOC(=O)C(=CNc1cccc(N)n1)C(=O)OCC	0.6	-57.4%[inhibitor]	3.1	6.7	-12.7	-0.9%
O=C(CCS(=O)(=O)Cc1ccccc1F)N1CCc2ccccc2C1	-0.9	u	-3.6	-1.7	-13.3	1.0%
Cc1cc(C)nc(N2CCC(CNC(=O)CCc3ccccc3)CC2)n1	3.3	0.0%	0.7	12.3	-2.7	4.0%
COc1ccc(-n2nc3c(c2NC(=O)CCCCl)CSC3)cc1	-1.1	-19.7%	0.3	x	-5.6	1.9%
COc1ccccc1OCc1nnc(SCC(=O)Nc2ccc(N3CCOCC3)cc2)n1C	-0.3	4.2%[15.4 µM]	-1.8	6.1	4.4	-4.8%
COCCNc1nnc(Cc2ccc(Cl)cc2)c(=O)[nH]1	-0.3	-1.5%	-2.8	-10.6	-11.9	5.8%
Cc1cccc(OCC(=O)Nc2ncn[nH]2)c1C	-20.4	11.9%	-0.6	x	-11.6	8.6%
Cc1cccc(C)c1OCCNC(=O)c1ccc2ccccc2n1	13.6	-5.3%	-0.1	x	-10.9	-6.7%
COC(=O)Cc1c(C)nc2nc(-c3ccc(C)cc3)[nH]n2c1=O	-3.1	u	-3.8	7.2	-10.4	-2.1%
N#Cc1cnn(Cc2ccccc2)c1/N=C/N1CCOCC1	-10.0	1.9%	-3.0	7.5	4.0	-10.3%
COc1cc([N+](=O)[O-])ccc1-c1ccc(/C=C2\C(=O)ON=C2c2ccccc2)o1	-7.1	2.6%	-3.2	x	-11.1	2.1%
Cc1ccc(S(=O)(=O)/N=C(/Nc2cccc(O)c2)c2ccccc2)cc1	-8.7	-6.4%	-1.7	-1.7	-4.4	11.4%
COc1ccc(OC)c(C2/C(=C(/O)c3ccccc3)C(=O)C(=O)N2Cc2ccco2)c1 (stereo not drawn)	-3.6	-11.7%[15.4 µM]	-3.5	0.8	-5.1	-6.3%
Cc1ccc(OCC(=O)c2ccc3c(c2)CCCC3)cc1C	52.4	0.0%	-1.3	35.5	-6.3	0.8%
Cc1cc(NC(=O)CSc2nnc(-c3ccncc3)n2N)ccc1Br	2.3	-54.1%[inhibitor]	-1.7	-2.0	-9.0	0.5%
Cc1nn2c(-n3ccnc3)c3c(nc2c1-c1ccccc1)CCC3	0.3	-2.5%	-2.4	-3.2	4.5	-7.6%
Cc1ccc(NC(=O)CN2C(=O)C(=O)N(C3CCCC3)C2=O)c(Cl)c1	2.4	-29.8%	0.9	11.8	-0.1	18.2%
Cc1ccc(CN2CCN(Cc3cnc(C)s3)CC2CCO)cc1 (stereo not drawn)	0.8	2.2%[15.4 µM]	-2.5	-14.7	-15.7	9.0%
CCC(C)c1c(O)nc(SCc2ccccc2)[nH]c1=O (stereo not drawn)	38.4	14.5%	-2.9	-0.1	-2.1	1.4%
CN1CCCN(C(=O)c2cc3c(s2)CCCC3)CC1	-5.9	u	-1.8	0.0	-23.5	13.0%
O=C(N/N=C/c1ccc(O)cc1O)c1ccncc1	-92.9*	u	1.6	-91.2*	-12.1	-5.9%
O=C(Nc1ccccc1N1CCN(C(=O)c2ccccc2)CC1)c1ccc2c(c1)OCO2	-8.1	u	-4.2	-4.9	-9.2	-21.3%
Cc1noc(NS(=O)(=O)c2ccc(N/C=C\C(=O)c3ccccc3)cc2)c1C	-12.5	-1.8%[15.4 µM]	-2.9	x	-1.7	-11.0%
CCCCc1ccc(NC(=S)N2CCC(O)CC2)cc1	-3.4	0.0%[15.4 µM]	-3.0	4.1	-1.0	-1.4%
COc1cccc(CNC(=O)CCC2CCCN(C(=O)CCC(F)(F)F)C2)c1 (stereo not drawn)	-3.7	6.7%	0.7	1.8	-1.3	-13.3%

The list goes on.
SMILES	Six1-Eya2 blk	gsp ag	D2 ag	CtBP-E1A inh	D2 PAM	gsp antagonist
O=C1c2ccccc2C(Nc2ccccc2)N1c1cccnc1 (stereo not drawn)	3.2	-34.3%[inhibitor]	1.2	-17.4	-5.6	-0.3%
CCOC(=O)C1(Cc2ccccc2C(F)(F)F)CCN(Cc2ccon2)CC1	-8.9	7.8%[15.4 µM]	-0.2	-0.1	-11.8	-3.2%
Cc1sc2ncnc(N3CCC(C(=O)NNC(=O)c4ccc(Cl)cc4)CC3)c2c1C	-25.7	12.6%[15.4 µM]	-4.8	-12.0	-6.5	u
CC(C)Oc1ccccc1C1NC(=O)CCC1[N+](=O)[O-] (stereo not drawn)	-12.9	u	-5.6	-1.0	-10.3	3.7%
O=C(NCCCNC(=O)c1cc(Cl)ccc1Cl)c1ccco1	3.7	8.2%	-3.9	-4.8	-6.0	-0.2%
O=C(CSc1nnc(NC(=O)c2cccc(Cl)c2)s1)NCC1CCCO1 (stereo not drawn)	3.7	-18.9%	-3.6	2.0	21.2	-22.9%
CC(=O)N1CCN(C(=O)CCNS(=O)(=O)c2ccccc2)CC1	5.0	-4.3%	-0.7	0.5	0.9	8.9%
CC(C1CC1)N(Cc1ccccc1)C(=O)NC(=O)c1ccccc1 (stereo not drawn)	-1.1	-10.9%[15.4 µM]	-3.7	4.2	-2.0	-5.5%
CCN(CC)/C(Sc1ccccc1)=C(/C(Cl)=C(Cl)Cl)[N+](=O)[O-]	1.9	-12.4%	-6.0	17.7	0.7	-1.9%
COc1ccccc1OCCCCCCN1CCOCC1	-16.3	-29.3%	-1.5	-16.4	-8.6	5.2%

A portion from further up, for reference:
SMILES	Six1-Eya2 blk	gsp ag	D2 ag	CtBP-E1A inh	D2 PAM	gsp antagonist
CC(=O)N1CCN(C(=O)CCNS(=O)(=O)c2ccccc2)CC1	5.0	-4.3%	-0.7	0.5	0.9	8.9%
CC(C1CC1)N(Cc1ccccc1)C(=O)NC(=O)c1ccccc1 (stereo not drawn)	-1.1	-10.9%[15.4 µM]	-3.7	4.2	-2.0	-5.5%
CCN(CC)/C(Sc1ccccc1)=C(/C(Cl)=C(Cl)Cl)[N+](=O)[O-]	1.9	-12.4%	-6.0	17.7	0.7	-1.9%
COc1ccccc1OCCCCCCN1CCOCC1	-16.3	-29.3%	-1.5	-16.4	-8.6	5.2%

New compounds follow
SMILES	Six1-Eya2 blk	gsp ag	D2 ag	CtBP-E1A inh	D2 PAM	gsp antagonist
Cc1cc(/C=C2/NC(=O)N(c3ccccc3)C2=O)c(C)n1C(C)C	-13.7	-1.1%[15.4 µM]	-1.5	-9.0	-1.6	-8.5%
CC(C)N1CSC(=S)N(Cc2ccccc2)C1	-0.2	7.5%[15.4 µM]	-0.5	-5.6	-14.1	4.3%
Cc1ccc(/C=C/c2ccc(N(C)C)cc2)[n+](C)c1	-0.6	u	-0.6	x	-22.2	u
CN1CCC(NC(=O)CCc2ccccc2)CC1	-2.4	5.6%[15.4 µM]	1.0	6.1	-1.1	3.9%
S=C(Nc1ccc2nsnc2c1)NC1CCCCC1	5.0	3.8%	7.0	4.9	-14.5	7.7%
O=C(NC1CCCCC1)[C@@H]1CSC2c3ccccc3C(=O)N21 (stereo partly drawn)	-9.5	-26.5%	-4.4	0.0	-11.3	13.9%
COc1cc(/C=N/Nc2ccccc2)ccc1OC(=O)c1cccs1	-9.9	-3.5%	0.7	-12.8	13.1	7.7%
